# UCH37 inh = blocks the human deubiquitinase UCH37. actives 0.33% (n = 330,000). AID 588478. purified proteasome/UCH37, Ub-AMC cleavage fluorescence. Q9Y5K5. inhibition, % (no concentration beside the values);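 active = mean of two replicates above 20%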;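 note: 0% = compound-free wells with enzyme and 100% = wells lacking proteasome; stock transfer was 100 nL into about 20 µL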
# Target sequence (Q9Y5K5 whole entry, looked up): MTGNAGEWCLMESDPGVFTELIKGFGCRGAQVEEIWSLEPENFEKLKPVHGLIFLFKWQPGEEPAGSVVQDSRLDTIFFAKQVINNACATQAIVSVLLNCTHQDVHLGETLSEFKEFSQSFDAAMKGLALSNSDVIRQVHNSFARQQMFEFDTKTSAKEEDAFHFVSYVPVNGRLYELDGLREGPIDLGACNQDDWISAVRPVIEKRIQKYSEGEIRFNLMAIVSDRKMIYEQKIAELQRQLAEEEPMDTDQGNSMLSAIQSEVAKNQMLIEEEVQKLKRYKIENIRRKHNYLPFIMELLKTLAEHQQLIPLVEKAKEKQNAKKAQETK
#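 Material: human UCH37 enzyme supplied as purified proteasome complex / Amount: 0.15 nM proteasome as dispensed / Buffer or medium: pH 7.4 Tris-HCl (50 mM) with ovalbumin, ATP-MgCl2, DTT / Times: preincubation 30 min, reaction 25 min, room temperature / Technique: AMC fluorescence from Ub-AMC cleavage, excitation 355 nm, emission 460 nm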
# AF4-AF9 inh = inhibitors of human MLL-AF4/AF9 interaction; AlphaScreen, biotin-AF4 peptide binding to FLAG-AF9; inhibition, % at 10 µM; actives 0.47% (n = 350,000); AID 651704;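 active = every replicate reaching a set inhibition limit, whatever the replicate mean, cut at about 25% in these data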;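 note: 0% = plate neutral control median and 100% = total signal loss; the record names both 10 and 1 µM as test concentration; the first replicate is given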
# FGF22 binding = shifts melting point of recombinant human FGF22; Q9HCT0; recombinant FGF22 thermal shift, SYPRO orange fluorescence; percent of sucrose octasulfate shift, DMSO zero; calls only at 9.99 µM; actives 1.5% (n = 340,000);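 active = melting point raised past a set limit in the mean and every replicate; three in four hits are not shown here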
# HNF4A DNA FP = change in binding of human HNF4 alpha to DNA | HNF4a-FITC DNA binding, fluorescence polarization, 1 h | actives 0.3% (n = 360,000) | AID 1224865 | activity change, % at 10 µM; in the data active = activity change above about 30%, passing the limit was not always enough;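 note: controls were the assay level and a saturating level of protein; the project sought stronger binding though the title names inhibitors; some compounds called inactive have numbers as strong as hits; positive values seem to mean higher polarization but the record does not say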
# Numbers without * were called inactive; i = inactive.
SMILES,UCH37 inh,AF4-AF9 inh,FGF22 binding,HNF4A DNA FP
CC[C@@H]1C(=O)OC[C@@H]1Cc1cncn1C,4.2,1.1,i,0.2

# Bioassay records from PubChem.

# Not all compounds are listed, so the mix of outcomes need not match the whole.
